Mtb hypoxia inh: PubChem AID 1159583 | fluorescence inhibition, % (concentration not given with the values) | 0.1% of 300,000 active | M. tuberculosis hypoxia-regulated fluorescent reporter, fluorescence;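 active = 35 to 45% if threefold the growth effect, above 45% if 1.5-fold the growth effect; inactive = the rest, general growth blockers included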;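 note: wells of about 50 µL received 100 nL stock; 0% = vehicle wells and 100% = reference inhibitor wells; whole bacteria with a GFP reporter of the hypoxia response; strong numbers were not always called active; many hits fall short of the cut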
Sa RN4220 lethal: growth inhibition of S. aureus RN4220, primary screen, OD600. 16 h. inhibition, % (concentration not given with the values). 0.33% of 330,000 active;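 active = z-score of -3 or lower and OD600 up to 0.18 on both plates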;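 note: plate controls were untreated cells for no effect and reference antibiotic for full effect; stock transfer was 100 nL into about 80 µL; one replicate is shown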
ugtP null kill: growth inhibition of ugtP-null S. aureus, primary screen, RN4220 ugtP deletion, OD600 | 0.54% of 330,000 active | 16 h; some inactives read as strong as hits | AID 1259309, 2017 | growth inhibition, % (test concentration not listed);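 active = z-score under -3 and OD600 up to 0.15 on both plates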;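 note: plate controls were untreated wells for no effect and antibiotic for full effect; wells of about 80 µL received 100 nL stock; the first replicate is given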
BJeLR viability: MLPCN primary cell-based screen for lethality selective to Ras in HRASV12 cells; BJeLR (HRASV12) viability, CellTiter-Glo ATP luminescence, 48 h; reference of the scale not given here; inhibition, % (no concentration beside the values); 0.17% of 300,000 active; AID 1554, 2009;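 active = replicate mean above 50%; inconclusive = above 50% but judged a plate artefact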;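 note: 50 nL library stock added to about 25 µL; numbers are from one replicate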
Autofluor counter: counter-screen for toxin protease inhibitors: compound fluorescence. compound autofluorescence counterscreen, microsphere flow cytometry; hits give high values. AID 624483. fluorescence intensity (no concentration beside the values). 3.1% of 360,000 active;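 active = at least 3 SD above the mean of all compounds, about 16000 in these data; inconclusive = too few beads counted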;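 note: 100 nL of 1 mM stock went into each well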
PrP 5UTR inh: inhibition of PrP 5' UTR reporter expression | cell-based PrP 5' UTR mRNA reporter, plate reader | 0.35% of 340,000 active | inhibition, % (no concentration beside the values);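 active = every replicate at 50% or more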;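 note: 0 = median of the neutral control wells; tested in H4 reporter cells; numbers are from one replicate; inactives centre near -14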
Mtb hypoxia inh growth: also measured in Mtb hypoxia inh; calls as there; growth inhibition, %; measured here: M. tuberculosis growth (absorbance);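 0% = vehicle and 100% = reference antibiotic; read after six days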
Numbers without * were called inactive; ? = inconclusive; nt = no result given. Random draw from the library, and some 4% of all compounds hit somewhere here.

molecule | Mtb hypoxia inh | Mtb hypoxia inh growth | Sa RN4220 lethal | ugtP null kill | BJeLR viability | Autofluor counter | PrP 5UTR inh
Cc1cccc(-c2nnn(Cc3nnc(NC(=O)c4ccccc4)s3)n2)c1 | nt | nt | -4.8 | -1 | 5 | 2262 | -18
COc1ccc(-c2[nH]ncc2CN(C)C(C)c2ccon2)cc1F (centres undefined) | 0 | 1 | 1.9 | 0 | -4 | 3911 | -13
CCOc1ccccc1C1C(C#N)=C(SCC(=O)OC)NC(=O)C1C(=O)OC (centres undefined) | 15 | 5 | 6.3 | -5 | 1 | 9597 | -13
CCCCCC(O)c1cc2ccccc2c(=O)o1 (centres undefined) | 22 | 11 | 10 | 4 | nt | nt | nt
O=C(O)c1cc(S(=O)(=O)N2CCCCC2)ccc1N1CCCC1 | -5 | 6 | 0.0 | 4 | nt | ? | nt
O=C(CN1CCN(S(=O)(=O)c2ccccc2[N+](=O)[O-])CC1)NC(=O)NCc1ccco1 | 10 | -7 | 1.6 | 1 | 1 | 4206 | -14
Nc1cc(-c2ccccc2)n2c(n1)nc1ccccc12 | 1 | 3 | 4.7 | 11 | 5 | 4408 | -20
O=C(CN1CCN(S(=O)(=O)c2ccc(Br)cc2)CC1)NN=Cc1cccnc1 | -2 | -4 | 3.2 | 10 | nt | nt | nt
N#C/C(=C\N1CCOCC1)C(N)=O | 4 | 9 | 2.6 | 5 | -2 | 3753 | -21
FC(F)(F)c1cccc(N2CCN(Cc3cccnc3)CC2)c1 | 5 | 6 | 5.0 | 7 | -14 | 16207* | -5
COc1ccc(C(CC(=O)O)NC(=O)C2CCCCC2)cc1 (centres undefined) | 8 | 9 | 3.9 | 2 | -2 | 10144 | -8
CCOC(=O)C1CN(S(=O)(=O)c2ccccc2)C1 | -2 | 7 | 0.6 | -1 | -20 | 9249 | -26
N#Cc1nc(COc2ccccc2)oc1N1CCCCCC1 | 5 | -9 | 5.8 | 15 | 2 | 5145 | -11
CC(=O)c1cc(Cl)ccc1OC(=O)c1ccco1 | 4 | -1 | 4.8 | 0 | 5 | 9656 | -24
Cn1c(C=O)c(-c2ccc3c(c2)OCCO3)c2ccccc21 | 0 | 4 | -22 | 46 | nt | 3571 | -26

The list goes on.
molecule | Mtb hypoxia inh | Mtb hypoxia inh growth | Sa RN4220 lethal | ugtP null kill | BJeLR viability | Autofluor counter | PrP 5UTR inh
Cc1cccc(OCCCC(=O)Nc2ccc(S(=O)(=O)N3CCCC3)cc2)c1 | nt | nt | -2.0 | -3 | 3 | 3603 | -10
OC(COc1ccc(F)cc1)CN1CCN(c2ccccc2F)CC1 (centres undefined) | 10 | 1 | 3.5 | 13 | -1 | 2816 | -1
Clc1ccc(Nc2ccccc2)nn1 | 2 | 10 | 1.5 | -13 | 14 | 3489 | -9
Nc1cc(Cl)ccc1C(=O)OCC(=O)NC1CCCCCCC1 | 9 | 6 | 1.9 | -4 | nt | 6799 | -8
CN(C(=O)COC(=O)c1ccc(C(C)(C)C)cc1)C1CCS(=O)(=O)C1 (centres undefined) | 6 | 1 | 0.8 | -2 | -6 | 5659 | -7
N#Cc1ccc(OCCN2CCc3ccccc3C2)cc1 | 4 | 2 | -1.7 | -1 | 0 | 6066 | -34
O=C(ONc1ccc(N=NC(=O)c2ccccc2O)cc1)c1ccccc1 | 12 | -8 | 1.1 | -13 | -15 | 11081 | -48
COc1ccc(C(=O)NCCn2cc(SCC(=O)N3CCOCC3)c3ccccc32)cc1 | -10 | 0 | -0.4 | -2 | 5 | 4380 | -20
O=C1CCC([N+](=O)[O-])C(c2ccc(Br)cc2)N1 (centres undefined) | 4 | -1 | -0.6 | 10 | -1 | 2551 | -12
CC(=O)Nc1ccc(NC(=O)CSc2nnc(-c3ccccc3)n2Cc2ccc3c(c2)OCO3)cc1 | 6 | 2 | 2.0 | 1 | -1 | 7723 | -8
CCOC(=O)c1cc(-c2ccccc2C)nn1CC1CC(c2cccnc2)=NO1 (centres undefined) | 15 | 4 | 5.7 | 3 | nt | 3664 | -22
Cc1ccc(-c2cc(C(=O)NN=Cc3c(C)nn(C)c3C)c3ccccc3n2)cc1C | -4 | 14 | -3.2 | -1 | nt | nt | nt
CCOC(=O)c1c(NC(=O)Cn2nc(C(F)(F)F)cc2C)sc(C)c1C | 5 | 1 | 3.5 | 4 | -6 | 8630 | -1
O=[N+]([O-])c1ccccc1Oc1cnc2ccccc2n1 | 2 | 6 | 4.0 | -7 | -8 | 1958 | -12
CC(=NNC(=O)CCc1c(C)n[nH]c1C)c1ccc([N+](=O)[O-])cc1 | 5 | 9 | 2.3 | 3 | nt | nt | nt

Additional results
molecule | Mtb hypoxia inh | Mtb hypoxia inh growth | Sa RN4220 lethal | ugtP null kill | BJeLR viability | Autofluor counter | PrP 5UTR inh
CC1(C)CC(=O)c2cnc(N)nc2C1 | 6 | 5 | 3.6 | 3 | -5 | 4260 | -27
Cc1ccccc1CN1CCC(N2CCC(C(=O)NCC3CCCO3)CC2)CC1 (centres undefined) | -3 | 2 | 3.1 | 6 | 3 | 6346 | 4
COc1ccc(NC(=O)c2ccc(OC)c(S(=O)(=O)N3CCCCC3C)c2)cn1 (centres undefined) | 3 | 4 | -2.6 | 2 | nt | nt | -10
COc1ccccc1CN(C)C(=O)CN1CCN(C(=O)c2cccs2)CC1 | 2 | 3 | 2.5 | 6 | nt | nt | -10
O=C(O)CCN1C(=O)c2ccc(NC(=O)c3ccco3)cc2C1=O | 4 | 7 | 5.1 | 7 | nt | 5132 | -26
CCOc1cc2c(C#N)c(N3CCNCC3)nc(N)c2c(N)n1 | 7 | 5 | 4.2 | -8 | -3 | 4009 | -7
Cc1cc(NC(=O)c2cccc(S(=O)(=O)N3CCCC3)c2)no1 | 5 | 4 | 3.1 | 13 | -8 | 7946 | -17
O=C(C(Sc1ccccc1)c1ccccc1)N1CCOCC1 (centres undefined) | 0 | -3 | 6.3 | 13 | 4 | 2242 | -22
Cc1cc(-c2cccs2)nc(-n2cccc2)n1 | 6 | 7 | -0.5 | 16 | 19 | 16038 | -59
CC(=O)C1=C(C)NC(=O)NC1c1cc(Br)ccc1OCC#N (centres undefined) | 0 | -1 | 4.2 | 8 | -7 | 3204 | 4
Cc1ccc(-c2n[nH]c(=O)c3ccccc23)cc1S(N)(=O)=O | 2 | 5 | -1.2 | 7 | -4 | 3996 | -2
Cc1cc(C)cc(N(CC(=O)NC2CCCC2)C(=O)c2csnn2)c1 | -2 | 2 | -0.7 | -4 | -4 | 2935 | -1
O=C1CC(=O)NC(SCC(=O)Nc2ccccc2[N+](=O)[O-])=N1 | 5 | 8 | 5.8 | 9 | 5 | 3630 | -8
CC(C)(C)C(=O)Nc1ccc(C(=O)OC2CCCCC2)cc1 | 15 | 7 | 0.0 | 0 | 4 | 4370 | -89
CC1Cc2ccccc2N1C(=O)CSc1ncccn1 (centres undefined) | 7 | -3 | 2.3 | 4 | 5 | ? | -24

More entries.
molecule | Mtb hypoxia inh | Mtb hypoxia inh growth | Sa RN4220 lethal | ugtP null kill | BJeLR viability | Autofluor counter | PrP 5UTR inh
C/C(=N\NC1=NCCN1)c1ccc(N)c([N+](=O)[O-])c1 | nt | nt | nt | nt | -1 | 4494 | -15
Cc1[nH]c2ccccc2c1C(=O)CN1C(=O)C(=O)N(CCC2=CCCCC2)C1=O | 4 | 7 | 1.9 | -16 | nt | 3713 | -21
O=C(NCCCN1CCOCC1)c1cc(Cl)ccc1OCc1ccccc1 | -4 | 7 | -1.7 | 4 | 9 | 5733 | -10
C=CCNC(=O)CSc1cc([N+](=O)[O-])cc(S(=O)(=O)Cc2ccccc2)c1 | -4 | 17 | 4.0 | 0 | -20 | 2179 | -28
Oc1ccc(Br)cc1CNc1nccs1 | 5 | -2 | 3.9 | 0 | -21 | 4194 | -21
CCC(=O)Oc1oc(-c2ccccc2)nc1C=Nc1ccc(C)cc1 | 11 | -1 | 2.3 | 2 | -8 | 4029 | -23
Cc1c(Cl)cccc1NC(=O)Nc1ccc(C(N)=O)cc1 | 3 | 6 | -4.3 | -12 | 1 | 2515 | -16
Cc1nn(CC(=O)N2CCN(C)CC2)c(=O)c2ccccc12 | 1 | 2 | 2.1 | 2 | 0 | 4332 | -11
CN(Cc1cccs1)C(=O)CN1C(=O)c2ccccc2S1(=O)=O | 6 | 0 | 6.1 | 0 | nt | 4038 | -9
Cc1ccsc1/C=C1\SC(N2CC(C)OC(C)C2)=NC1=O (centres undefined) | 19 | 5 | -2.3 | 9 | -4 | 1968 | -10
Cn1cc(Cl)c(C(=O)NC(=S)Nc2sc3c(c2C#N)CCCCC3)n1 | 3 | 4 | 5.0 | -6 | 5 | 2264 | -15
CCCNC(=O)c1ccc2c(c1)ncn2-c1cc(C)cc(C)c1 | 8 | 6 | 4.0 | 19 | 5 | 3273 | 5
CCOC(=O)c1c(C)[nH]c(C(=O)OCc2ccc([N+](=O)[O-])cc2)c1C | 7 | -5 | 4.3 | -2 | -1 | 4387 | 6
CC(C)CC(=O)Nc1ccnn1C1CCN(C(=O)c2ccc(Cl)cc2F)CC1 | 4 | 3 | 2.9 | 5 | 2 | 5590 | -3
CN(Cc1ccccc1)C(=O)c1[nH]cnc1C(=O)NCc1ccc(CNC(=O)OC(C)(C)C)cc1 | 14 | 10 | 4.3 | 4 | nt | 3893 | -17

A run of entries of the results above, as a working copy:
molecule | Mtb hypoxia inh | Mtb hypoxia inh growth | Sa RN4220 lethal | ugtP null kill | BJeLR viability | Autofluor counter | PrP 5UTR inh
C/C(=N\NC1=NCCN1)c1ccc(N)c([N+](=O)[O-])c1 | nt | nt | nt | nt | -1 | 4494 | -15
Cc1[nH]c2ccccc2c1C(=O)CN1C(=O)C(=O)N(CCC2=CCCCC2)C1=O | 4 | 7 | 1.9 | -16 | nt | 3713 | -21
O=C(NCCCN1CCOCC1)c1cc(Cl)ccc1OCc1ccccc1 | -4 | 7 | -1.7 | 4 | 9 | 5733 | -10
C=CCNC(=O)CSc1cc([N+](=O)[O-])cc(S(=O)(=O)Cc2ccccc2)c1 | -4 | 17 | 4.0 | 0 | -20 | 2179 | -28

Other structures
molecule | Mtb hypoxia inh | Mtb hypoxia inh growth | Sa RN4220 lethal | ugtP null kill | BJeLR viability | Autofluor counter | PrP 5UTR inh
OC1COC(OCc2ccccc2)C(O)C1O (centres undefined) | 15 | 7 | 3.4 | 4 | -6 | 4180 | 5
O=C(Cc1ccc(Br)cc1)N1CCN(c2ccccc2O)CC1 | nt | nt | 4.0 | 8 | 0 | 4479 | -26
CN(C(=O)CC1C(=O)NCCN1Cc1ccoc1)C1CCOCC1 (centres undefined) | 6 | -1 | -0.1 | 10 | -7 | 2691 | -5
CC(=O)Nc1ccccc1NC(=O)C/C(C)=N/NC(=O)C1CCCCC1 | nt | nt | nt | nt | -1 | 5464 | -14
CC1CCCC(C)N1C(=O)COC(=O)CNC(=O)c1ccccc1 (centres undefined) | 5 | 9 | -0.4 | -5 | nt | 3853 | -10
OC(CNCc1ccco1)COc1ccccc1 (centres undefined) | 0 | 6 | -13 | -6 | 0 | 3128 | -5
CCCCCC(O)C=CC1C(O)CC(O)C1CC=CCCCC(=O)O (centres undefined) | 1 | 0 | 1.0 | -2 | nt | 3769 | nt
CN(C(=O)c1ccc(OC2CCN(CCc3ccccc3)CC2)cc1)C1CCOC1 (centres undefined) | 6 | 7 | 4.8 | 3 | -2 | 2386 | -43
CCOCCN(C(=O)COC)c1cccc(OC)c1 | nt | nt | 2.2 | 4 | -7 | 3660 | -6
CCOC(=O)C1CN(S(=O)(=O)c2cc(OC)ccc2OC)C1 | 14 | 7 | 2.2 | 2 | 2 | 3438 | -19
COc1ccc(S(=O)(=O)N2CC(C)N(C(=O)N3CCOCC3)C2)cc1 (centres undefined) | 10 | 1 | 2.8 | 1 | 13 | 2719 | -19
CCCC(=O)c1c[nH]c(C(=O)NCc2ccco2)c1 | nt | nt | 1.2 | -7 | 1 | 4232 | -28
O=c1[nH]c2ccc(S(=O)(=O)NCc3ccccn3)cc2s1 | 9 | 6 | 0.8 | 6 | -7 | 9913 | -19
CCN1CCN(C(=O)Nc2cccc3ccccc23)CC1 | 12 | 5 | 6.2 | 8 | -12 | 8575 | -25
C=C1SC(Nc2c(C)cccc2C)=NC12CCCCC2 | -35 | -2 | 1.3 | 36 | 8 | nt | -8
NC(=O)CCC1NC(=O)C2CCCN2C(=O)c2cc([N+](=O)[O-])cc(F)c2NCCCC(C(N)=O)NC1=O (centres undefined) | 7 | 11 | 5.6 | -13 | nt | nt | nt

Bioassay records from PubChem.
